Assay outcomes: PubChem BioAssay, National Center for Advancing Translational Sciences (NCATS)
Rango-impB inh: prevents formation of the Rango-importin beta complex. AID 540263. Rango CFP/YFP FRET sensor + importin beta, 45 min. Potency, µM (highest dose often 92.2 µM), inactives show top-dose inhibition of complex formation. actives 0.031% (n = 340,000); active = rising FRET ratio curve, often small or poorly fitted; inconclusive = mostly compound fluorescence or quenching in the first reads; inactive = flat curves in all reads;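 also: potency is read from the fitted curve at half-maximal effect; 0% = DMSO wells and 100% = buffer wells lacking importin beta; nearly all actives have a fitted effect of over 15% in size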
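FRET biosensor (snurportin 1 IBB flanked by EYFP and cerulean), 50 nM, with compound 5 min, then 0.125 microM importin beta in PBS, 1 mM DTT, 0.02% Tween-20, 0.1% BSA. CFP/YFP ratio read after 45 min at room temperature; pre-read flags interference.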
miR-21 reporter: raises the signal of a miR-21 reporter; AID 2288; 340,000 tested, under 10 active; HeLa miR-21 FLuc reporter, luciferase, 48 h; Potency, µM (doses to about 38.3 µM), for inactives: at the top dose reporter change, positive = more light; active = well fitted rising curve with a large enough effect; inconclusive = small, poorly fitted or top-dose-only effect; inactive = no such curve, though single readings can be large or run the other way;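 also: % of control where 0% means no effect; miR-21 action dims this reporter so a rising signal means less miR-21 action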
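Compounds were titrated across several concentrations (up to approximately 40 uM) and incubated 48 hours with HeLa miR-21-FLuc reporter cells (miR-21 target sequence downstream of FLuc, endogenous miR-21). Readout was firefly luciferase luminescence after lytic detection reagent.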
GLA inh pH 4.5: blocks human alpha-galactosidase A at pH 4.5; purified enzyme, 4-MU-alpha-Gal fluorescence, pH 4.5; activity change, negative = inhibition, % at 105 µM; 230,000 tested, under 10 active; inconclusive = small, poorly fitted or top-dose-only inhibition, or a rising curve; inactive = flat fitted curve, though single readings scatter; no compound was filed as active;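 also: 0% = full activity with enzyme and -100% = basal without enzyme; dose as in the result columns while the protocol names 77 µM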
Target sequence (P06280 whole entry, looked up): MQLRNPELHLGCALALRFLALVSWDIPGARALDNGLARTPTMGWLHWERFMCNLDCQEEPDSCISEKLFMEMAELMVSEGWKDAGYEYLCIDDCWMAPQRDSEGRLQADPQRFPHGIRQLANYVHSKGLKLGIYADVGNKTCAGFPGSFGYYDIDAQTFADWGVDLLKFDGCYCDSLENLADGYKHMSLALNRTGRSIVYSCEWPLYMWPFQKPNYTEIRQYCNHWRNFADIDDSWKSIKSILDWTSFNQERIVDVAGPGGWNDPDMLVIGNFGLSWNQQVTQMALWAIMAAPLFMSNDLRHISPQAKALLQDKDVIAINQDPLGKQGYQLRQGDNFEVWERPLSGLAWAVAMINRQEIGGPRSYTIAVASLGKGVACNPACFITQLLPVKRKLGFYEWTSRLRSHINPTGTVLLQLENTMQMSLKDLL
Rango dissoc inh: inhibitors of RanGTP-induced Rango-importin beta complex dissociation. O95149+P62826. Biochemical FRET Rango-importin beta, RanGTP-induced dissociation. Potency, µM (highest dose often 46.1 µM), inactives show top-dose activity change, negative = inhibition. actives 0.071% (n = 340,000). AID 540253; active means falling FRET ratio curve, often poorly fitted, with flat reads before Ran was added; inconclusive means other falling curves, or compound fluorescence or quenching; inactive means flat or rising ratio curve;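 also: potency is read from the fitted curve at half-maximal effect; % of control where 0% means no effect; nearly all actives have a fitted effect of over 45% in size; -100% = wells without RanGTP and RCC1; the record marks most hits as doubtful in a second field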
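FRET read at 45 min, room temperature: inhibitors block the CFP/YFP signal rise when RanGTP (0.6 uM Ran, 2 mM GTP, 0.2 uM RCC1) frees Rango (0.1 uM) from importin beta (0.25 uM). Pre-read after 5 min compound exposure flags interference.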
* = called active by the depositor; ? = inconclusive; · = not tested or not shown; & = joins results of further samples; [ ] = remark or other dose.

SMILES	Rango-impB inh	miR-21 reporter	GLA inh pH 4.5	Rango dissoc inh
COc1ccc(-c2cc(=O)oc3cc(OC(C)C(=O)NC4CC4)ccc23)cc1 (stereo not given)	3.1%	-4%	·	-10%
C[C@H](NC(=O)c1ccco1)C(=O)NNC(=O)c1ccc(F)cc1	4.3%	·	·	16%
Cc1ccc(NC(=O)CN2C(=O)S/C(=C/c3ccc(-c4cc(C(=O)O)ccc4C)o3)C2=O)cc1C	?	-1%	-8	?
COC(=O)CCC(=O)Nc1cc(OC)c(OC)cc1Cc1nccc2cc(OC)c(OC)cc12	0.9%	-1%	·	3%
O=C(O)c1cccc(NC(=S)N/N=C/c2ccccc2OCc2ccc(Br)cc2)c1	-2.8%	-60%	-12	-11%
CC1CC(C)CN(CC(O)COCc2ccccc2F)C1 (stereo not given)	-4.4%	-3%	·	11%
O=C(CSc1nnc(C2CC2)n1Cc1ccccc1)NCc1ccccc1	0.9%	-2%	3	8%
Cn1c(SCC(=O)Nc2ccc3c(c2)OCCO3)nnc1C(F)(F)F	-0.8%	·	·	1%
CCN1CCN(Cc2ccc(NC(=O)c3cc(NC(=O)c4cncc(-c5ccc(C#N)cc5)c4)cc(OC)c3)cc2C(F)(F)F)CC1	-3.3%	?	2	4%
COC(=O)C(NNc1ccc(F)cc1)(NC(=O)c1ccccc1)C(F)(F)F (stereo not given)	-1.3%	-4%	3	9%
COc1ccc2c(C)cc(SCC(=O)N(C)C3CCS(=O)(=O)C3)nc2c1 (stereo not given)	?	3%	5	-20%
CC(C)c1ccc(C(=O)NC2=NCCS2)cc1	5.2%	-28%	-3	77%
CSc1sc(C(=O)O)c2c1C(=O)CCC2	-0.3%	-2%	4	0%
CSCCC(NC(N)=O)C(=O)Nc1ccc(C)cc1 (stereo not given)	-2.5%	4%	0	-3%
O=C(c1cc(-c2ccc(O)cc2)on1)N1CCOCC1	6.2%	-15%	·	6%
CCOc1cc(N2CCOCC2)c(OCC)cc1NC(=O)c1ccc(NC(C)=O)cc1	2.4%	-3%	6	2%
COc1ccc(OCC(=O)NCCc2ccc(S(N)(=O)=O)cc2)cc1	-1.5%	5%	4	-11%
CCOC(=O)c1ccc(N2N=C(C)/C(=C/C=C/c3ccco3)C2=O)cc1	-0.2%	-8%	-19	1%
CN(C)S(=O)(=O)c1ccc(N2CCOCC2)c(C(=O)NCc2ccc3c(c2)OCO3)c1	2.0%	·	·	-5%
CC(=O)Nc1ccc(Cc2ccc3[nH]c(=O)cc(C)c3c2)cc1	·	4%	-1	·
Cc1cc(S(=O)(=O)N2CCCc3ccccc32)ccc1-n1cnnn1	1.9%	2%	·	-22%
COc1ccccc1NC(=O)COc1ccc(C(=O)NCc2ccccc2)cc1OC	?	·	·	-2%
Cc1ccc(/C=N/NC(=O)C(C)NC(=O)c2ccccc2)cc1 (stereo not given)	-0.8%	2%	2	6%
CN(CC(=O)Nc1ccc2c(c1)OCO2)CC(=O)Nc1ccc(F)c(F)c1F	3.8%	·	·	-10%
O=C1CC(c2ccc(F)cc2)CC(O)=C1C1NCCc2ccccc21 (stereo not given)	-1.9%	-1%	-27	-1%
COCCOCCn1c(CCCO)nc2ccccc21	2.6%	-3%	6	1%
Cc1ccc2nc(N=C(N)N)nc(C)c2c1	-1.0%	14%	·	1%
O=C(NCc1nnc2c(C(F)(F)F)cc(Cl)cn12)C1CCCC1	0.0%	-1%	·	0%
CC[N+](C)(CC)CC(O)COCC1COc2ccccc2O1 (stereo not given)	?	-5%	0	-2%
COc1ccc(Br)c(C(=O)OCC(=O)N2CCc3ccccc32)c1	-1.7%	·	·	10%
COc1ccccc1NC(=O)C(C)OC(=O)Cc1ccsc1 (stereo not given)	3.6%	·	·	7%
COc1ccc(S(=O)(=O)N2CCC(NC(=O)c3cccc(F)c3)CC2)cc1	0.9%	4%	·	-20%
O=C(O)C1CC(=O)N(CCc2c[nH]c3ccccc23)C1 (stereo not given)	-2.7%	-1%	2	0%
Cc1ccc(-c2cc(Cc3ccc(N(C)C)cc3)c(=O)[nH]n2)cc1	-7.7%	-33%	-1	3%
O=C(CNS(=O)(=O)c1ccc(Br)s1)Nc1ccc2c(c1)OCCO2	-2.0%	-23%	7	1%
Cc1c(Cl)cccc1NC(=S)NC(=O)CCN1C(=O)c2ccccc2C1=O	?	-5%	-8	1%
COc1ccc(N2C(=O)CC(Cc3ccccc3OC)C2=O)cc1 (stereo not given)	-0.1%	-7%	·	-4%
O=c1cc(Nc2cccc(Br)c2)[nH]c(=O)[nH]1	0.9%	1%	1	6%
O=C1CCc2cc(S(=O)(=O)N3CCN(c4ccc(F)cc4)CC3)cc3c2N1CC3	1.9%	·	·	23%
CC(NC(=O)c1cc(=O)[nH]c2ccccc12)c1ccc(F)cc1F (stereo not given)	-0.7%	-1%	·	6%

In the list so far, these contain a furan ring, fused or not:
SMILES	Rango-impB inh	miR-21 reporter	GLA inh pH 4.5	Rango dissoc inh
C[C@H](NC(=O)c1ccco1)C(=O)NNC(=O)c1ccc(F)cc1	4.3%	·	·	16%
Cc1ccc(NC(=O)CN2C(=O)S/C(=C/c3ccc(-c4cc(C(=O)O)ccc4C)o3)C2=O)cc1C	?	-1%	-8	?
CCOC(=O)c1ccc(N2N=C(C)/C(=C/C=C/c3ccco3)C2=O)cc1	-0.2%	-8%	-19	1%

Following part:
SMILES	Rango-impB inh	miR-21 reporter	GLA inh pH 4.5	Rango dissoc inh
CC1CCN(CCCOc2ccc(Br)cc2Cl)CC1	6.0%	-17%	-13	6%
CC(C)CCn1c(N2CCc3ccccc3C2)nc2c1c(=O)[nH]c(=O)n2C	-0.3%	-7%	·	2%
O=[N+]([O-])c1cccc(CSc2nnc3ccccn23)c1	-0.7%	-10%	2	-7%
S=c1[nH]nc(Cn2cnc3ccccc32)n1-c1ccccc1Cl	2.1%	-5%	4	-25%
CN(C(=O)CC1C(=O)NCCN1Cc1c(F)cccc1Cl)C1CCOCC1 (stereo not given)	-0.5%	-1%	·	-5%
CC(C)Cc1nc2oc3c(NCc4cccnc4)ncnc3c2c2c1CCC2	-0.5%	-14%	-4	-5%
CC(C)C(=O)NC(=S)Nc1sc2c(c1C(N)=O)CCCC2	-0.7%	-63%	-2	-2%
CCc1nc(Nc2ccc(OC)cc2OC)c2oc3ccccc3c2n1	-1.7%	0%	·	-10%
O=[N+]([O-])c1ccc(Cl)c(S(=O)(=O)NCCc2ccccn2)c1	1.3%	·	·	-5%
Cc1cc(SCc2cccc([N+](=O)[O-])c2)nc(=O)[nH]1	0.1%	-5%	·	-15%
C=CCNC(=O)Cn1nc(-c2ccccc2)ccc1=O	0.5%	1%	-2	-1%
CC(C)Cc1c(O)nc(SCCN2CCOCC2)[nH]c1=O	-4.3%	1%	4	-1%
O=C(CNc1ccc(F)cc1)N/N=C/C1CC=CCC1 (stereo not given)	0.3%	-1%	2	24%
C/C(CCc1ccco1)=N\NC(=O)CNc1cccc2ccccc12	?	0%	23	0%
CCOc1ccc(-c2nnc(SCC(=O)NC3CC3)o2)cc1	-1.2%	·	·	0%
Cc1ccccc1-c1nnc(SCC(=O)NC2CCCC2)o1	-1.6%	-11%	·	1%
O=C(NCCO)c1cc2c([nH]c3ccccc32)c(-c2ccc(F)cc2)n1	6.0%	10%	·	2%
S=C1NCCOCCOCCOCCOCCNC(=S)NCCOCCOCCOCCOCCN1	0.1%	-3%	-3	0%
CCOC(=O)c1ccc(N2C(=O)CC(N3CCC(Nc4ccc(F)cc4)CC3)C2=O)cc1 (stereo not given)	7.9%	-2%	-11	4%
CCOc1ccccc1N(CC(=O)NC(C)(C)C)C(=O)c1ccc(CN2CCOCC2)o1	-0.9%	2%	14	10%
Cc1nn2c(N3CCN(C(=O)c4ccco4)CC3)cc(C(C)(C)C)nc2c1-c1ccccc1	1.6%	-4%	3	9%
Cc1ccccc1NC(=O)c1cccc(NC(=O)CCC(=O)O)c1	-4.1%	4%	-4	-29%
O=C(c1cc2ccccc2[nH]1)N1CCOCC1	3.6%	-54%	-4	32%
CCC(C(=O)c1ccc(O)cc1)c1ccccc1 (stereo not given)	0.5%	5%	1	-12%
Cc1cc(C)n(CCCNC(=O)C2CC(=O)N(Cc3ccccc3)C2)n1 (stereo not given)	-2.8%	·	·	-15%
CCOc1cc2[nH]c(=O)n(Cc3ccc(C(=O)NCCCN4CCC(C)CC4)cc3)c(=O)c2cc1OCC	-0.9%	-3%	-6[21.1 µM]	-16%
O=C(CSc1ccc(F)cc1)N1CCC(c2nc3ccccc3s2)CC1	-4.8%	19%	-1	-15%
O=C(CNC(=S)NC(=O)c1ccc(Br)o1)c1ccccc1	0.4%	12%	7	-17%
COC(=O)c1ccc(NC(=O)CC2C(=O)N(c3ccc(C)cc3)C(=O)N2CC(C)C)cc1 (stereo not given)	1.2%	3%	4	1%
CCOc1ccc(-c2nnc3ccc(SCC(=O)N4CCN(c5ccccc5)CC4)nn23)cc1	-0.5%	·	·	34%
O=C(N/N=C/c1cccc([N+](=O)[O-])c1)c1cc(-c2ccc3c4c(cccc24)CC3)n[nH]1	2.0%	-3%	-15	6%
Cc1ccc(CCN2CC(C(=O)NCCCN3CCC(C)CC3)CC2=O)cc1 (stereo not given)	-2.9%	0%	·	11%
CCOC(=O)C1=C(c2ccccc2)OC(N)=C(C#N)C1c1ccc(Br)s1 (stereo not given)	-4.5%	-5%	6	0%
COc1cccc(-n2c(N)c(C#N)c3ccc([N+](=O)[O-])cc3c2=O)c1	·	-9%	3	·
Cc1ccc(NCC(=O)NNC2=NCCC2)c(C)c1	0.6%	-3%	9	-16%
Cc1cc(NC(=O)CSc2nc(=O)n(CCN(C)C)c3c2CCCC3)no1	-0.4%	·	·	-5%
O=C1COc2ccccc2N1Cc1c(F)cccc1Cl	-0.9%	-4%	·	15%
CCC(C)NC(=O)C1CCN(S(=O)(=O)c2cc([N+](=O)[O-])ccc2Cl)CC1 (stereo not given)	1.7%	6%	0	-4%
N#CCCN1CCN(S(=O)(=O)c2ccc(C3CCCCC3)cc2)CC1	0.1%	·	·	1%
Cc1ccc(C(=O)NNC(=O)c2ccc(S(=O)(=O)N3CCCCC3)cc2)cc1	2.0%	·	·	-8%
CCOc1ccc(S(=O)(=O)N2CCC(C(=O)N3CCN(C)CC3)CC2)cc1Cl	-1.9%	-4%	·	-2%
O=C(c1nc(-c2ccccc2)n(-c2ccccc2)n1)N1CCCCCC1	2.4%	-7%	-6	-17%
COc1ccc(N2CCN(C(c3cccs3)c3nnnn3C3CCCC3)CC2)cc1 (stereo not given)	?	-4%	-16	?
CCC(C)NC(=O)c1cn(CC)c2ccc(S(=O)(=O)N3CCCCC3)cc2c1=O (stereo not given)	0.3%	-6%&8%	·	9%
COc1ccc(-c2noc(CCC(=O)N3CCN(c4cccc(Cl)c4)CC3)n2)cc1	0.5%	·	·	6%
Cc1ccc(C2(C)NC(=O)N(CC(=O)N3CCc4ccccc43)C2=O)cc1 (stereo not given)	-0.6%	·	·	-9%
CCc1nc(OCCN(C)C)c2oc3ccccc3c2n1	4.3%	-29%	8	9%
Cc1ccc(/C=C/C(=O)Nc2nc3ccccc3[nH]2)cc1	0.7%	-60%	-1	-18%
CC(C)C(=O)NC(=S)Nc1ccccc1N1CCN(C(=O)c2ccc(Cl)cc2)CC1	-2.9%	18%	-1	?
O=C(CCN1CCCCCC1)Nc1ccc(F)cc1	-0.1%	0%	10	?
CCCCN(C(=O)C1CC(=O)N(c2ccc(CC)cc2)C1)c1c(N)n(CCC)c(=O)[nH]c1=O (stereo not given)	-1.0%	·	·	-5%
O=[N+]([O-])c1ccc2nn(Cc3ccccc3)cc2c1	0.2%	2%	·	4%
COc1ccc(/C=C2/NC(=O)N(Cc3ccccc3F)C2=O)cc1OC	-6.2%	0%	-3	1%
Cc1ccc2c(CN3CCC(C)CC3)cc(=O)oc2c1	-4.4%	-67%	-3	?
CC(C)Cc1nnc(NS(C)(=O)=O)s1	2.7%	-7%	-8	0%
CSc1cccc(NC(=O)c2cc(S(=O)(=O)N3CCc4ccccc43)cn2C)c1	0.2%	10%	·	?

A portion of the library; rates above refer to the full screens.
